Source: PubChem BioAssay
PINK1 expr mod: PINK1 expression modulation. PINK1 immunofluorescence, high-content cytometry, 24 h. Potency, µM (titrated, usually from 76.6 µM), inactives show at the top dose activation (PINK1 increase), most hits filed as activators. 410,000 tested, 0.2% active. AID 624263; active = well fitted activation curve with a large enough effect; inconclusive = small, poorly fitted or top-dose-only effect; inactive = flat fitted curve, though single readings scatter; cell line not stated here;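 further: potency means the concentration at half of the fitted maximal effect; % of control where 0% means no effect; nearly all actives have a fitted effect of over 65% in size; a mitochondrial uncoupler was the plate control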
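Fluorescence from anti-PINK1 antibody, together with nuclear and cell stains, was scanned on a laser-scanning cytometer. Before staining, stable-line cells were incubated 24 hours with compounds at 5 concentrations; primary antibody 12 h at 10 degrees C.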
TRPV1 potentiator: enhances activation of the human vanilloid receptor TRPV1; AID 540277; 320,000 tested, 0.02% active; potentiation, % at 8.33 µM; TRPV1-expressing cells, Fluo-8 calcium influx, capsaicin EC20 potentiation; host cell line not named in the record; control for the full effect not named in the record; Q8NER1; active means potentiation above 80%; inconclusive means 30% to 80%; inactive means below 30%; further: 0% is about no effect
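Fluo-8 calcium influx in TRPV1-expressing cells, kinetic read (ex 480/em 520 nm). Compound added and read 3 min for agonist activity, followed by capsaicin at EC20 final and 2 min further read for enhancement.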
TRPML1 blocker: blocks the human TRPML1 channel; 390,000 tested, 0.02% active; TRPML1-inducible cells, Ca2+ dye fluorescence, FDSS; stronger effect = lower value; inhibition of EC80 agonist-evoked calcium signal; Q9GZU1; activity change, negative = inhibition, % (test concentration not listed); in the data active means activity change below about -50%; inconclusive means about -30% to -50%; inactive means above about -30%;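 further: stimulus is agonist 54-4 at its EC80 concentration; on the % scale 0 is the no-effect control and ±100 the full control effect; compound concentration not given in the record; the text of the record puts the active cut at -80%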
Target sequence (Q9GZU1 whole entry, looked up): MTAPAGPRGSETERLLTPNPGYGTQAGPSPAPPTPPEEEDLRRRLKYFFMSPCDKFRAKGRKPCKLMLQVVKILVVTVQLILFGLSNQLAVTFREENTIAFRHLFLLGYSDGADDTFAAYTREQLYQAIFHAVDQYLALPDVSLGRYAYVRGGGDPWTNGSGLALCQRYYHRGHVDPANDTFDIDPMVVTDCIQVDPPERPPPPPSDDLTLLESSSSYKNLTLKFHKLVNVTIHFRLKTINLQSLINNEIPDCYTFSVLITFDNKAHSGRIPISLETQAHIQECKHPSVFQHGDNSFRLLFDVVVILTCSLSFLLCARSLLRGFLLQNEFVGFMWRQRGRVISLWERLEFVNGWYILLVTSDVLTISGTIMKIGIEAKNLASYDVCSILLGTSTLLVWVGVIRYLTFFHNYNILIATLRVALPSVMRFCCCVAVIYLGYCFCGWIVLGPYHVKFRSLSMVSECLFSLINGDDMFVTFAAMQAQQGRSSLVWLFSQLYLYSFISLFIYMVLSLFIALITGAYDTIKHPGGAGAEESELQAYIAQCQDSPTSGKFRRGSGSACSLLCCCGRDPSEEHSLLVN
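Calcium fluorescence in TRPML1-DL cells induced overnight with Tet: a 110 s read after compound pin addition, then a 110 s antagonist read after challenge with 54-4 at 4 uM final (EC80).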
ClpP mod: qHTS Assay for Activators of ClpP. purified B. subtilis ClpP, FRET peptide cleavage, 20 min. AID 651965, 2013. Potency, µM (titrated, usually from 57.5 µM), inactives show at the highest dose activity change, negative = active. 340,000 tested, 1.9% active. ATP-dependent Clp protease proteolytic subunit (Bacillus subtilis (strain 168)), P80244; active = well fitted falling curve with a large enough effect; inconclusive = small, poorly fitted or top-dose-only effect; inactive = no such curve, though single readings can be large or run the other way; further: potency means the concentration at half of the fitted maximal effect; the source files actives as falling curves though it sought activators and does not explain the sign; nearly all actives have a fitted effect of over 65% in size; many hits overshoot -100%
Target sequence (P80244 whole entry, looked up): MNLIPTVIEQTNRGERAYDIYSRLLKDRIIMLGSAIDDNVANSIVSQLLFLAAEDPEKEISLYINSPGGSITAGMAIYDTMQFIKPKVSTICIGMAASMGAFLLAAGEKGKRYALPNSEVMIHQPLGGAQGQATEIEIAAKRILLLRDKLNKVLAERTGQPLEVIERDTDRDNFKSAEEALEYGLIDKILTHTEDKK
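Purified B. subtilis ClpP, 10 microg/mL final in Tris/HCl pH8 with KCl, BSA, glycerol and Tween-20, cleaved an Abz/nitrotyrosine-quenched decapeptide. Fluorescence (ex 320, em 430) was read at 0 and 20 min at room temperature. Delta was normalized to 5.8 microM ADEP and DMSO/no-enzyme controls.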
Menin-MLL FL inh: inhibitors of human menin-MLL interaction, wild-type MLL peptide; Fluorescence polarization, fluorescein-MLL peptide displacement from menin; FP activity change, % at 61.4 µM; 290,000 tested, under 10 active; inconclusive = falling polarisation curve, or a change in total fluorescence; inactive = total fluorescence flat and polarisation flat or rising; no compound was filed as active; the % refers to the polarisation; negative = inhibition;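 further: % of control where 0% means no effect; inhibitors lower the polarisation; unlabelled MLL peptide was the positive control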
TRPML1 ag: activates the human TRPML1 channel; AID 624414; Q9GZU1; TRPML1-expressing cells, Ca2+ dye fluorescence, FDSS; host cell line not named in the record; reference of the full effect not given here; 410,000 tested, 0.12% active; activation, % (concentration not given with the values); in the data active = activation above about 50%; inconclusive = about 30% to 50%; inactive = below about 30%; further: 0% is about no effect; the text of the record puts the active cut at 80%
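Tet-induced TRPML1-DL cells, 1,500 per well, cultured overnight, were loaded with a no-wash Ca2+ dye for 45–90 min. Calcium fluorescence was recorded on the FDSS for 110 s after compound addition, before the EC80 agonist (4 uM 54-4) was added.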
Sfp inh: inhibitors of Bacillus subtilis Sfp phosphopantetheinyl transferase; Q9F4F7; Biochemical Sfp PPTase activity, qHTS; Potency, µM, for the others: max response, negative = inhibition, most hits filed as inhibitors; 310,000 tested, 3.5% active; AID 1490; active means well fitted inhibition curve with a large enough effect; inconclusive means small, poorly fitted or top-dose-only effect, or another doubt; inactive means no such curve, though single readings can be large or run the other way;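 further: the enzyme is Sfp with the accession as filed and its product quenches rhodamine fluorescence; potency means the concentration at half of the fitted maximal effect; 0% = enzyme reaction without inhibitor and -100% = no enzyme wells; top concentration of the series not given in the record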
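Fluorescence-quenching assay: 15 nM Sfp-PPTase preincubated 15 min at room temperature with compound, then 5 uM rhodamine-CoA and 12.5 uM BHQ-2-labelled YbbR peptide added. Fluorescence (ex 525/em 598 nm) read at start and after 30 min; difference gives rate.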
An asterisk follows results filed as active; & = joins results of further samples; [ ] = another dose, or the depositor's remark.

What do the screens show for `O=C1CCCc2nc(N3CCN(c4ccccc4)CC3)ncc21`?
PINK1 expr mod: -0.4%; TRPV1 potentiator: -9; TRPML1 blocker: 7; ClpP mod: -2.0%; Menin-MLL FL inh: 9.3; TRPML1 ag: 3.7; Sfp inh: 7%

How did CCN1C2=NCCCN2c2cc(C)c(C)cc21 do in these assays?
PINK1 expr mod: -2.3%; TRPV1 potentiator: 3; TRPML1 blocker: -13; ClpP mod: 28µM*; Menin-MLL FL inh: 3.0; TRPML1 ag: 1.3; Sfp inh: 0%

How did CN(c1nc2ccccc2n2c(-c3ccco3)nnc12)S(=O)(=O)c1ccccc1 do in these assays?
PINK1 expr mod: 13%[38.3 µM]; TRPV1 potentiator: 2; TRPML1 blocker: -5; ClpP mod: inconclusive; Menin-MLL FL inh: 2.1; TRPML1 ag: 0.6; Sfp inh: 11%

Results for Cc1cc(C)c(C#N)c(Oc2ccccc2)n1 ?
PINK1 expr mod: 14%; TRPV1 potentiator: -1; TRPML1 blocker: 36; ClpP mod: -1.1%; Menin-MLL FL inh: 4.5; TRPML1 ag: 2.4; Sfp inh: 4%

How did Cc1ccccc1NC(=O)c1ccc(N/N=C/c2ccccc2O)c([N+](=O)[O-])c1 do in these assays?
PINK1 expr mod: 11%; TRPV1 potentiator: -2; TRPML1 blocker: -1; ClpP mod: -4.2%; Menin-MLL FL inh: 0.7; TRPML1 ag: -0.9; Sfp inh: 3%

Results for CCOC(=O)c1cccc(Nc2cc(-c3ccccc3)ncn2)c1 ?
PINK1 expr mod: -1.9%; TRPML1 blocker: 11; ClpP mod: inconclusive; TRPML1 ag: 2.7

What do the screens show for `CCc1cc2ccccc2nc1SCC(=O)Nc1cc(C)on1`?
PINK1 expr mod: inconclusive; TRPV1 potentiator: 2; TRPML1 blocker: 20; ClpP mod: -7.4%; Menin-MLL FL inh: -2.4; TRPML1 ag: 4.9; Sfp inh: -10%

How did C[C@@]12C(=O)N(c3cccc(Br)c3)C(=O)N1[C@H](c1ccc(Cl)cc1)[C@@H]1C(=O)N(C3CCCCC3)C(=O)[C@@H]12 do in these assays?
PINK1 expr mod: -0.2%; TRPV1 potentiator: -9; TRPML1 blocker: -13; ClpP mod: 0.8%; Menin-MLL FL inh: 1.9; TRPML1 ag: 0.8; Sfp inh: 22%

Results for Cc1ccccc1C(=O)Nc1cccc(C(=O)N/N=C/c2cc(Cl)cc([N+](=O)[O-])c2O)c1 ?
PINK1 expr mod: 1.7%; TRPV1 potentiator: -1; TRPML1 blocker: 27; ClpP mod: 0.1%; Menin-MLL FL inh: 17; TRPML1 ag: 2.7; Sfp inh: 15%

What do the screens show for `COc1ccc(C(=O)NC2CCSc3ccccc32)cc1F` (configuration not stated)?
PINK1 expr mod: 0.6%; TRPV1 potentiator: -9; TRPML1 blocker: -6; Menin-MLL FL inh: 0.1; TRPML1 ag: -0.1; Sfp inh: 20%

What do the screens show for `CCN(CC)C(=O)c1nn(-c2ccccc2)c2c1C1CCC2(C)C1(C)C` (configuration not stated)?
PINK1 expr mod: 3.9%; TRPV1 potentiator: 4; TRPML1 blocker: 25; Menin-MLL FL inh: 0.3; TRPML1 ag: 0.4; Sfp inh: -29%

How did CC(NC(=O)CCn1c(=S)[nH]c2ccsc2c1=O)c1ccccc1 (configuration not stated) do in these assays?
PINK1 expr mod: 2.0%; TRPV1 potentiator: 0; TRPML1 blocker: 24; Menin-MLL FL inh: 3.4; TRPML1 ag: -0.3; Sfp inh: 11%

How did Cc1cc(C(=O)CSc2nc(N)cc(N)n2)c(C)n1CC1CCCO1 (configuration not stated) do in these assays?
PINK1 expr mod: -2.3%; TRPML1 blocker: 36; TRPML1 ag: 0.3

How did CCOC(=O)Cc1csc(NS(=O)(=O)c2ccc(F)cc2)n1 do in these assays?
PINK1 expr mod: 0.4%; TRPV1 potentiator: 20; TRPML1 blocker: 9; ClpP mod: -0.6%; Menin-MLL FL inh: 0.3; TRPML1 ag: -0.2; Sfp inh: 20%

Results for CCCCCCCCc1nnc(NC(=O)c2ccco2)s1 ?
PINK1 expr mod: -1.6%[38.3 µM]; TRPV1 potentiator: 4; TRPML1 blocker: -10; ClpP mod: -2.0%; Menin-MLL FL inh: 4.0; TRPML1 ag: 0.3; Sfp inh: 2%

How did COc1ccc(C(=O)NC(C)c2ccc(-n3ccnc3)cc2)c(OC)c1OC (configuration not stated) do in these assays?
PINK1 expr mod: 0.4%; TRPV1 potentiator: -8; TRPML1 blocker: 3; ClpP mod: 0.4%; TRPML1 ag: -0.4; Sfp inh: 6%

Results for Cc1ccc(C(C)C)c(OCc2nnc3n2CCCCC3)c1 ?
PINK1 expr mod: -1.1%; TRPV1 potentiator: 0; TRPML1 blocker: 29; ClpP mod: 3.4%; Menin-MLL FL inh: 1.8; TRPML1 ag: 1.4; Sfp inh: 13%

How did Cc1cccc(-c2nnc(SC(C)C(=O)N3CCOCC3)o2)c1 (configuration not stated) do in these assays?
PINK1 expr mod: -0.8%; TRPV1 potentiator: 27; TRPML1 blocker: 13; ClpP mod: 1.4%; TRPML1 ag: 0.2; Sfp inh: 14%

Results for Cc1cccc(NC(=O)CSCC(=O)N2CCN(Cc3ccc4c(c3)OCO4)CC2)c1 ?
PINK1 expr mod: -0.2%; TRPV1 potentiator: -2; TRPML1 blocker: -5; ClpP mod: 2.2%; TRPML1 ag: 2.4

What do the screens show for `C/C(=N/NC(=O)c1ccccc1)c1ccc(NC(=O)C(F)(F)F)cc1`?
PINK1 expr mod: 7.3%; TRPV1 potentiator: -1; TRPML1 blocker: -4; Menin-MLL FL inh: -1.0; TRPML1 ag: -0.6; Sfp inh: 7%

What do the screens show for `CCOC(=O)N1CCN(Cc2c(F)cccc2F)CC1`?
PINK1 expr mod: -0.3%; TRPV1 potentiator: 15; TRPML1 blocker: 11; ClpP mod: 2.9%; Menin-MLL FL inh: 1.7; TRPML1 ag: -0.5; Sfp inh: -16%

Results for CC1(N(O)C=C2C=CC(=O)C=C2)CCCCC1=O (configuration not stated) ?
PINK1 expr mod: 1.3%; TRPV1 potentiator: 1; ClpP mod: -0.2%; Menin-MLL FL inh: 3.6; Sfp inh: -7%

Results for Cn1c(N)c(C(=O)COC(=O)C2Cc3ccccc3CN2S(C)(=O)=O)c(=O)n(C)c1=O (configuration not stated) ?
PINK1 expr mod: 1.3%; TRPML1 blocker: 3; ClpP mod: 0.8%; TRPML1 ag: -0.8

How did C[C@]12CCC3C(CC[C@H]4CC(O)CC[C@]34C)C1CC/C2=N/O (some centres not stated) do in these assays?
PINK1 expr mod: 6.8%; TRPV1 potentiator: 7; TRPML1 blocker: -11; Menin-MLL FL inh: -0.8; TRPML1 ag: -0.1; Sfp inh: -5%

What do the screens show for `CC(C)CN=CC1=C(O)c2ccccc2C1=O`?
PINK1 expr mod: -1.2%; TRPV1 potentiator: -12; TRPML1 blocker: 3; ClpP mod: -5.3%; Menin-MLL FL inh: 0.7; TRPML1 ag: -0.4; Sfp inh: 0%

How did Cc1nc(SCC(=O)NCC2CCCO2)c2c3c(sc2n1)CCC3 (configuration not stated) do in these assays?
PINK1 expr mod: 1.9%; TRPV1 potentiator: -4; TRPML1 blocker: -9; ClpP mod: -15%; TRPML1 ag: 0.4; Sfp inh: 6%

What do the screens show for `CCN1CCCC1CNC(=O)C(NC(=O)C1CCC(C)CC1)C(C)C` (configuration not stated)?
PINK1 expr mod: 0.4%; TRPV1 potentiator: inconclusive; TRPML1 blocker: 2; ClpP mod: -3.7%; Menin-MLL FL inh: -1.0; TRPML1 ag: 0.1; Sfp inh: -15%

What do the screens show for `Cc1ccc(C(C)(C)NC(=O)C2CCC(=O)N(CCCN3CCOCC3)C2)cc1` (configuration not stated)?
PINK1 expr mod: 2.2%; TRPV1 potentiator: 15; TRPML1 blocker: -1; ClpP mod: -0.2%; Menin-MLL FL inh: 4.1; TRPML1 ag: -0.6; Sfp inh: 28%

Results for CC(SCC(=O)NC(C)C1CC2CCC1C2)C(=O)O (configuration not stated) ?
PINK1 expr mod: 4.3%; TRPV1 potentiator: 24; TRPML1 blocker: 41; ClpP mod: -2.2%; Menin-MLL FL inh: -1.5; TRPML1 ag: -0.2; Sfp inh: -1%

How did CCCNC(=O)c1cc2nc(-c3ccccc3)cc(C(F)(F)F)n2n1 do in these assays?
PINK1 expr mod: 16%[38.3 µM]; TRPV1 potentiator: 8; TRPML1 blocker: 2; ClpP mod: 108%; Menin-MLL FL inh: 2.4; TRPML1 ag: -0.6; Sfp inh: 6%

How did Cn1ncc2c(Nc3cccc(F)c3)ncnc21 do in these assays?
PINK1 expr mod: 0.4%; TRPML1 blocker: -2; ClpP mod: -6.1%; TRPML1 ag: 0.9

What do the screens show for `O=C(/C=N/O)Nc1ccc2sc3ccccc3c2c1`?
PINK1 expr mod: 1.9%; TRPV1 potentiator: -20; TRPML1 blocker: 8; Menin-MLL FL inh: 8.3; TRPML1 ag: 1.3; Sfp inh: -14%

Results for Cc1cccc(C)c1N=Nc1c(C)cc(O)cc1C ?
PINK1 expr mod: -2.1%; TRPV1 potentiator: 5; TRPML1 blocker: -8; ClpP mod: -1.6%; Menin-MLL FL inh: -4.1; TRPML1 ag: 0.0; Sfp inh: 6%

How did Cc1ccc2c(=O)n3c(nc2c1)C(C)NC(=O)c1cccnc1-3 (configuration not stated) do in these assays?
PINK1 expr mod: 0.7%; TRPML1 blocker: 0; ClpP mod: -2.9%; TRPML1 ag: 0.0

How did CCOC(=O)N1CCN(CCC(=O)Nc2cccc(Br)c2)CC1 do in these assays?
PINK1 expr mod: 0.4%[38.3 µM]; TRPV1 potentiator: 20&-1; TRPML1 blocker: -9&0; ClpP mod: -1.8%&0.1%; Menin-MLL FL inh: -1.6&-0.1; TRPML1 ag: -0.3&-0.6; Sfp inh: 16%&-7%

What do the screens show for `COc1ccc(CCCc2nnc(SCC(=O)Nc3ccc(C)cc3)o2)cc1C`?
PINK1 expr mod: 1.5%; TRPML1 blocker: 11; ClpP mod: 2.5%; TRPML1 ag: 3.2
